MgrA DNA FP: alters Staphylococcus aureus MgrA binding to DNA; fluorescence polarization; inhibition, %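 (about 10 µg/mL by stock and volumes)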; 0.13% of 84,000 active;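 active means above 50% in either of two replicates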;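 further: 0% = protein plus DNA without compound and 100% = DNA alone without protein; higher means less MgrA bound to DNA so lower polarization; one replicate is shown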
S aureus helic: S. aureus DNA helicase inhibition; inhibition, %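 (tested at about 80 µM)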; purified S. aureus helicase, fluorescence unwinding assay; about half of the hits fall short of the stated cut; 0.05% of 120,000 active; AID 485395;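 active means both duplicates at 50% or more, or one of them with a favoured structure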;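 further: 0% = mean of negative control wells and 100% = mean of positive control wells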
The depositor's hits bear a star; . = no result given. Some of the compounds tested; the hit share may differ from the screen's.

S aureus helic,MgrA DNA FP,compound
8.0,1.4,CC(=O)N(CCCCN1C(=O)c2ccccc2C1=O)c1ccc(Cl)cc1
-4.0,.,CC(=O)NCc1ccc(C(=O)CSc2nnc(-c3cccs3)n2C2CC2)s1
6.0,.,CCCNC(=O)c1ccc2c(c1)N(Cc1ccccc1)CCS2
-22.0,.,CCOC(=O)c1[nH]c(COC(=O)[C@H](Cc2ccccc2)NC(=O)c2ccco2)c(C(=O)OCC)c1C
29.0,.,CN=C1c2cc3cc(OC)ccc3n2CCN1Cc1ccccc1
43.0,.,Cc1nc2ccccc2nc1C(=O)NCCN1CCN(c2ccccc2)CC1
.,-1.7,Cn1nc(-c2ccc(CO)s2)cc1C(F)(F)F
2.0,7.6,CCc1ccc2ncc(C(=O)c3ccccc3)c(N3CCOCC3)c2c1
7.0,.,O=C1c2ccccc2C(Nc2ccccc2)N1Cc1ccc2c(c1)OCO2 (stereo not given)
.,0.0,CCOC(=O)c1c(C)n(-c2ccc(I)cc2)c2ccc(O)cc12
8.0,.,C=C(C)Cn1c(CCCO)nc2ccccc21
2.0,-4.3,CN(C)N1C(=O)CC(N2CCCC2)C1=O (stereo not given)
.,-1.9,O=C(N=S1CCC2(C1)OCCO2)c1cc(C(F)(F)F)cc(C(F)(F)F)c1 (stereo not given)
9.0,.,CCOC(=O)c1oc2ccc(OCC)cc2c1C
-2.0,0.5,CCOc1ccc2nc(NC(=O)C3(S(=O)(=O)c4ccc(C)cc4)CC3)sc2c1
12.0,.,COc1ccccc1N1CCN(C(=O)CCCCCn2c(=S)[nH]c3cc4c(cc3c2=O)OCO4)CC1
-15.0,1.1,CCN(CC)S(=O)(=O)c1ccc2[nH]cc(C(=O)N3CCC(C)CC3)c(=O)c2c1
1.0,.,CC1(C)CC(=O)c2sc(NC(=O)c3ccc(S(C)(=O)=O)cc3)nc2C1
-11.0,.,NC(=O)NCC(=O)NCC1COc2ccccc2O1 (stereo not given)
7.0,-1.7,COc1cc2cc(Oc3ccc4ccc(=O)oc4c3)c(=O)oc2cc1OC(C)=O
4.0,2.4,O=c1ccc(=O)n(CN2CCC(Cc3ccccc3)CC2)[nH]1
-15.0,.,CN(c1ccc(F)cc1)S(=O)(=O)c1ccc(Cl)c(C(=O)NCc2ccco2)c1
13.0,-1.7,COc1ccc2cnn(-c3ccccc3)c(=O)c2c1OC
-16.0,-1.1,O=C(Oc1ccc2cc(Br)ccc2c1)c1cccnc1Cl
-4.0,2.4,Oc1ccc2ccccc2c1C=NCc1cn2ccccc2n1

Reprinted from the part before: 5 entries; new compounds follow.
S aureus helic,MgrA DNA FP,compound
4.0,2.4,O=c1ccc(=O)n(CN2CCC(Cc3ccccc3)CC2)[nH]1
-15.0,.,CN(c1ccc(F)cc1)S(=O)(=O)c1ccc(Cl)c(C(=O)NCc2ccco2)c1
13.0,-1.7,COc1ccc2cnn(-c3ccccc3)c(=O)c2c1OC
-16.0,-1.1,O=C(Oc1ccc2cc(Br)ccc2c1)c1cccnc1Cl
-4.0,2.4,Oc1ccc2ccccc2c1C=NCc1cn2ccccc2n1
-18.0,.,O=c1c2cn[nH]c2nc2ccccn12
.,-2.9,COC(=O)c1cc(OC)c(OC)cc1NC(=O)Nc1ccccc1
.,3.9,Cc1ccccc1Nc1nccc(N(C)C)c1C#N
6.0,.,Clc1ccc(-n2ncc3c(Cl)ncnc32)cc1
.,2.8,CCOC(=O)CN1CCC(c2cc(-c3ccc(Cl)cc3)n[nH]2)CC1
29.0,.,Cn1cccc1/C=N/NC(=O)CSc1nnc(-c2ccccc2)n1-c1ccccc1
.,2.8,N#Cc1c(-c2ccccc2)cc[nH]c1=O
-91.0,.,CN(C)c1ccc(/C=C/C(O)=C2/C(=O)NC3(C)CC2c2ccccc2O3)cc1 (stereo not given)
23.0,1.1,O=C(NCCCN1CCCC1)c1cc(-c2ccncc2)nc2ccccc12
-11.0,0.9,N#Cc1ccc(COc2nncc(Cl)c2Cl)cc1
.,-0.3,CC(=O)Nc1c(Cl)c(Cl)c(Cl)c(Cl)c1Cl
13.0,-2.2,COC(=O)c1ccc(OC)c(Br)c1
.,-1.1,CC(C)(CC(=O)O)CC(=O)N1CCCN(c2nc3ccc(Cl)cc3s2)CC1
11.0,-2.5,Cc1cc(C)n(CC(O)CN2c3ccccc3Sc3ccccc32)n1 (stereo not given)
-3.0,.,CCN1C=NS(=O)(=O)c2ccc(C)cc21
0.0,-1.4,CN(C)C(=O)c1ccccc1-c1ccccc1C(=O)O
18.0,.,N#Cc1c(C(F)(F)F)cc(=O)[nH]c1SCc1nc(-c2ccc(F)cc2)no1
2.0,.,Nc1nc2ccccc2n1Cc1ccccc1
22.0,.,c1nc(NC2CCCC2)c2[nH]cnc2n1
-8.0,.,O=C(COC(=O)c1ccc(S(=O)(=O)NCc2ccco2)cc1)NCc1ccco1
-16.0,.,COC(=O)c1sc(N)c(C(=O)OC)c1COc1ccccc1C#N
.,-1.0,FC(F)(F)c1cc(Nc2nc3ccccc3s2)cc(C(F)(F)F)c1
14.0,.,CCCCc1ccc(-c2ccc(C#N)cc2)nc1
11.0,1.1,CCCOc1ccc(C2C3=C(CCCC3=O)OC3=C2C(=O)CCC3)cc1OCC
-7.0,-2.2,CCN(Cc1ccccc1)Cc1cccnc1
-5.0,.,CN(C(=O)CSc1nnc(Cc2ccccc2)o1)C1CCCc2ccccc21 (stereo not given)
.,4.2,COc1ccc2c(C)nc(NC3=NCC(=O)N3)nc2c1
15.0,.,O=C(O)c1cc2nc(-c3ccccc3)cc(-c3ccccc3)n2n1
12.0,1.2,CCN(CC)CCSc1nnc(Nc2ccccc2)n1-c1ccccc1
0.0,-2.1,O=C(O)CCOc1ccc2c(c1)OCCO2
9.0,.,COC(=O)Cn1c(SC)nc2ccccc21
16.0,.,COC(=O)c1c(NC(=O)C2CC(=O)NN2C)sc2c1CCC2 (stereo not given)
15.0,.,O=C1C(Nc2cccc(O)c2)=C(n2nnc3ccccc32)C(=O)c2ccccc21
26.0,5.3,COC(=O)c1ccc(COc2ccc3c(C)cc(=O)oc3c2)o1
.,0.3,O=c1oc2ccccc2cc1-c1nnc(-c2ccccc2)o1
7.0,-0.7,Cc1ccc(S(=O)(=O)c2cc3ccccc3oc2=O)cc1
3.0,.,CC(OC(=O)COc1ccc(-c2ccccc2)cc1)C(N)=O (stereo not given)
14.0,-2.0,Cn1c(Sc2nc3ccccc3n2C)nc2ccccc21
-1.0,3.9,O=C(Nc1ccc2nn(-c3ccccc3)nc2c1)c1ccccc1
.,6.3,CCCCCCCCCCCCCCCC[N+](C)(C)CCN(Cc1ccc(OC)cc1)c1ncccn1
0.0,0.5,O=C(CCC(=O)c1ccccc1)c1ccccc1
3.0,-2.8,CC(C)CN(CC(C)C)C(=O)Nc1ccc(F)cc1F
.,-0.9,N#Cc1nn(-c2ccccc2)c(=O)n(Cc2ccc(Cl)cc2Cl)c1=O
-9.0,.,COC(=O)C1CCCN(C(=O)C2CCCN2S(=O)(=O)c2cccc3nsnc23)C1 (stereo not given)
.,-1.3,NS(=O)(=O)c1ccc(C(F)(F)F)cc1Cl
13.0,.,CC(C)c1cc(NNC(N)=O)cc(C(C)C)c1O
7.0,-1.8,O=S(=O)(c1ccc(-c2csc(=Nc3cccc(C(F)(F)F)c3)n2CCO)cc1)N1CCCC1
14.0,-2.0,CC1(C)OC(=O)N(c2ccccc2)C12C=Cc1cc3ccccc3cc1O2 (stereo not given)
.,10.3,COc1ccccc1N1C(=O)NC(=O)/C(=C/c2cn(C(C)=O)c3ccccc23)C1=O
1.0,-1.0,CN(Cc1cc2ccccc2[nH]c1=O)C(=O)C1CCCCC1

Compound profiles, as listed above:
O=C(Oc1ccc2cc(Br)ccc2c1)c1cccnc1Cl is listed with S aureus helic: -16.0; MgrA DNA FP: -1.1
O=C1c2ccccc2C(Nc2ccccc2)N1Cc1ccc2c(c1)OCO2 (stereo not given) is listed with S aureus helic: 7.0; MgrA DNA FP: .

(next part)
S aureus helic,MgrA DNA FP,compound
4.0,0.8,CC(CCc1ccccc1)NC(=O)CSc1cc(=O)n(C)c2ccccc12 (stereo not given)
2.0,.,COc1ccc(C2SCCN2S(=O)(=O)c2ccccc2)cc1 (stereo not given)
2.0,-1.9,Cc1c(-n2c(=S)[nH]c3ccccc3c2=O)c(=O)n(-c2ccccc2)n1C
-53.0,.,Cc1ccc(/C=C2\CN(Cc3ccccc3)C/C(=C\c3ccc(C)o3)C2=O)o1
16.0,.,COc1ccc(-c2nc3scc(CCNC(=O)c4ccccc4)n3n2)cc1
-10.0,-0.8,Cc1cc(NCCCN2CCCC2=O)n2c(nc3ccccc32)c1C#N
.,-1.5,COc1ccc(C2CC(=O)C3=C(C2)NC(C)=C(C(=O)OCCOc2ccccc2)C3c2ccc(O)c(OC)c2)cc1 (stereo not given)
10.0,.,CNC(=O)Cn1c(=O)n(C)c2ccccc21
-4.0,.,O=C(NCc1ccccc1)c1nnc(CS(=O)(=O)c2ccccc2)o1
-3.0,-0.1,CCN(CC)CCN1C(=O)C2C3c4ccccc4C(c4ccccc43)C2C1=O (stereo not given)
27.0,3.3,CC(C)c1nc(NCc2ccccc2)c(C#N)c2c1CCCC2
11.0,.,CC1=CC(=O)C(C(=O)/C=C/c2ccccc2)C(=O)O1 (stereo not given)
-24.0,.,COc1ccc(C(=O)N2CCN(CCn3c(C)ccc3C)CC2)cc1
1.0,.,CCCCNC(=O)Nc1nc(-c2ccc(C)cc2)c(-c2ccc(C)cc2)o1
10.0,-1.7,CN(C)S(=O)(=O)c1ccc(NC(=O)C2CCC2)cc1
2.0,.,CN(C)S(=O)(=O)c1ccc(C(=O)Nc2[nH]nc(N3CCCC3)c2C#N)cc1
-21.0,.,Cc1cc(C)n2nc(SC(C)C(=O)NC(=O)NC3CCCCC3)nc2n1 (stereo not given)
13.0,.,C/C(=N\NC(=O)Cc1csc(N2CCOCC2)n1)c1ccccc1
35.0,.,CCCc1cc(=O)n2[nH]c(NC(=O)C(c3ccccc3)c3ccccc3)nc2n1
-2.0,1.5,CCCOc1ccc(/C=C/C(=O)Nc2ccc(S(=O)(=O)Nc3ncccn3)cc2)cc1
-1.0,-7.3,Cc1ccc(-c2csc3nc[nH]c(=O)c23)cc1C
-5.0,.,CC(=O)Nc1ccc(SCC(=O)c2cc(C)n(C)c2C)cc1
9.0,.,O=C(c1cccs1)N1N=C(c2ccccc2)CC1c1cccs1 (stereo not given)
7.0,-0.2,CCOC(=O)COn1c(=O)c(-c2ccc(Cl)cc2)[n+]([O-])c2ccccc21
5.0,-1.3,O=C(Nc1nc2ccccc2s1)c1ccccc1
.,-0.1,COC(=O)c1cc(S(=O)(=O)NCc2cccs2)oc1C
-13.0,.,CCCn1c(SC)nc2ccccc2c1=O
11.0,.,CC(C)CC1C(C#N)=C(N)OC2=C1C(=O)CC(c1ccccc1)C2 (stereo not given)
-9.0,1.4,COC(=O)c1cc(Cl)c(NC(=S)NC(=O)C(C)(C)C)cc1OC
.,-0.5,CCOC(=O)c1ccc2nc(C(F)(F)F)cc(N3CCC(C(=O)OCC)CC3)c2c1
2.0,-2.5,ClC1=NN(c2ccccc2)CC1
13.0,.,CCOc1ccc(-c2ccc(=O)n(CC(N)=O)n2)cc1
.,-6.4,Cc1onc(C(N)=O)c1C(=O)Nc1cccc(C(F)(F)F)c1
-10.0,.,Cc1ccc(CC(C#N)Sc2n[nH]c(-c3ccccc3F)n2)cc1 (stereo not given)
-1.0,.,COc1ccc(-c2cc(CCCC(=O)N3CCN(c4ccc(OC)cc4)CC3)no2)cc1
-12.0,.,CC(C)C(Sc1nncn1C(C)C)C(=O)NC(N)=O (stereo not given)
1.0,1.2,CCSC1=C(C#N)C(c2cccs2)C(C(=O)Nc2ccccc2)=C(C)N1 (stereo not given)
-1.0,-1.9,O=C(Nc1cccc(C(F)(F)F)c1)c1cccc(F)c1
10.0,.,O=C(O)/C=C/c1cn(CCC(=O)O)nc1-c1ccccc1
.,-1.1,C=CCNC(=O)CSc1nccc(-c2sc3sc(Br)c(C)c3c2C)n1
.,1.6,CCOC(=O)c1c(C)n(C)c2c1cc(OC(=O)c1ccccc1Cl)c1ccccc12
-1.0,0.1,O=C1c2ccccc2C(=O)N1c1ccccc1
4.0,3.0,Cn1c(CSc2ccccc2)nc2ccccc21
18.0,.,Cc1ccc(-c2nc(Nc3ccccc3)n[nH]2)cc1
.,3.7,C[C@H](CS)C(=O)N1CCC[C@H]1C(=O)O
.,0.4,NC(=O)C1=C(O)C(=O)N(C2CCCCC2)C1
7.0,1.4,CC1CCCC(NC(=O)COC(=O)c2ccc(Br)o2)C1C (stereo not given)
10.0,.,Cc1cc(C(=O)OCC(=O)N(C)c2ccccc2)c2ccccc2n1
6.0,2.8,c1csc(-c2nnc(CSc3cccc4cccnc34)o2)c1
10.0,0.1,CCOC(=O)c1cnc(N2CCc3ccccc3C2)nc1N
9.0,16.5,CC(OC(=O)C1=Cc2ccccc2OC1)C(=O)NCC1CCCO1 (stereo not given)
-12.0,0.0,CN(C(=O)CSc1c2c(nc3cc(Cl)ccc13)CCCC2)c1ccc(F)cc1
25.0,18.0,O=C1NC(=O)/C(=C\c2ccccc2C(F)(F)F)S1

High-throughput results deposited in PubChem BioAssay by ICCB-Longwood Screening Facility, Harvard Medical School.
